Mtb growth = Mycobacterium tuberculosis H37Rv growth inhibition, cell based, confirmatory dose response (AID 1949) | most inactive calls were filed without a number and no value below 0 was filed | 1.6% of 100,000 active | M. tuberculosis H37Rv growth inhibition | inhibition, % at 10 µg/mL, or IC50 in µg/mL where a hit was titrated;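 active means confirmed in a dose series; inconclusive means about 50% or more but not retested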;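 further: bacteria grown 7 days with compound before Alamar blue readout; 0% = untreated bacteria and 100% = reference antibiotic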
Numbers without * were called inactive; i = inactive; ? = inconclusive. The list is partial. The share of hits here may be higher or lower than overall.

SMILES	Mtb growth
CC1(C)CC(=O)C2=C(C1)Nc1ccccc1NC2c1nc2ccccc2[nH]1 (stereo not given)	i
CCOC(=O)c1ccc(NC(=O)CCCSc2nc(N)c3c(C)c(C)sc3n2)cc1	i
CC(Oc1ccc(Br)cc1)C(=O)N1CCN(c2ccc(F)cc2)CC1 (stereo not given)	7%
Cc1cc(C)cc(Oc2ccc(NC(=O)CCCC(=O)O)cc2)c1	i
COCCCNCCOCCOc1ccc(C)cc1Br	i
O=C(Cc1cccs1)Nc1ccccc1	i
Cc1ccc(OCCOCCN2CCOCC2)c([N+](=O)[O-])c1	i
CC(=O)N(C)c1ccc(NC(=O)c2ccc(C)c(I)c2)cc1	i
Cc1cc(=O)oc2cc(NC(=O)c3ccccc3Br)ccc12	i
Oc1ccc(-c2nc(-c3ccc(O)c(O)c3)cs2)cc1	3%
COc1ccc(CNc2ccc3c(c2)nc(C)n3C)cc1OC	i
CCS(=O)(=O)N1CCN(C(=O)CC(C)C)CC1	i
COc1ccccc1NC(=O)c1cccc(COCC(F)(F)F)c1	i
O=S(=O)(NCc1cccnc1)c1ccc2c(c1)OCCO2	i
CN1CCN(NC(=O)Nc2ccc([N+](=O)[O-])cc2)CC1	i
CCN(CC)S(=O)(=O)c1cccc(C(=O)c2cccc(S(=O)(=O)N(CC)CC)c2)c1	i
COc1ccc(CCN2COc3cc4c(cc3C2)OCO4)cc1	i
CC(=O)N(C(C)=O)c1ccc2nc(C)[nH]c(=O)c2c1	i
CC(C)C(=O)Nc1nnc(CSCCOc2ccccc2)s1	1%
Cc1cccc(C(=O)NC(=S)Nc2sc3c(c2C(N)=O)CCC(C(C)(C)C)C3)c1 (stereo not given)	i
COc1cccc(OC)c1C(=O)Nc1ccc(CN2CCCCC2)cc1	i
CN1CCN(C(=O)CN(CCc2ccccc2)S(=O)(=O)c2cc(Cl)ccc2Cl)CC1	i
Cc1nnc(SCc2cc(=O)[nH]c(N3CCN(Cc4ccccc4)CC3)n2)s1	3%
O=C(O)CC(c1ccccc1)c1ccco1 (stereo not given)	2%
O=C(NCCc1ccccc1)c1ccc(NS(=O)(=O)c2cccc(Cl)c2)cc1	i
CN1CCN(c2ncnc3c2cnn3Cc2ccc(Cl)cc2)CC1	i
CCOc1ccc(C2CC(=O)Nc3cc4c(cc32)OCCO4)cc1OC (stereo not given)	i
Cc1cc(C)cc(NC(=O)COc2ccc3c4c(c(=O)oc3c2)CCCC4)c1	i
CC1CN(c2ccc([N+](=O)[O-])cc2C(=O)N2CCOCC2)CC(C)N1 (stereo not given)	i
O=C(NCc1ccco1)c1ccccc1NS(=O)(=O)c1ccc(F)cc1	i
CN(C)c1ccc(NC(=O)CC2NCCNC2=O)cc1 (stereo not given)	i
CCCC(=O)Nc1ccc(N2CCCCC2C)cc1 (stereo not given)	i
COc1ccc(OC)c(NC(=O)NNC(=O)COc2ccc(-c3ccccc3)cc2)c1	i
O=C(CCN1C(=O)C2C3C=CC(C4CC34)C2C1=O)Oc1ccc(-c2ccccc2)cc1 (stereo not given)	36%
O=C(Nc1cc(Cl)ccc1Oc1ccccc1)c1cccs1	i
COc1ccccc1NC(=S)Nc1cccc(Cl)c1	i
O=C(N1CCc2ccccc21)C(Cl)(Cl)Cl	i
Cc1cccc(C)c1NC(=O)COc1cc2oc(=O)c3c(c2cc1Cl)CCCC3	i
CCOc1ccc(NC(=O)c2cc(Cl)ccc2Cl)cc1	i
CCOc1ccccc1OCC(=O)Nc1nccs1	i
O=C(Nc1ccccc1C(=O)NCc1ccco1)c1ccc(-c2ccccc2)cc1	i
O=C(C1CCCN(S(=O)(=O)c2ccccc2)C1)N1CCCCCC1 (stereo not given)	i
O=C(COc1ccc(Cl)cc1Cl)NCCCOCC(=O)Oc1ccc(Cl)cc1Cl	9%
O=C(c1ccco1)N1CCN(C(=O)N2CCCC2)CC1	i
COc1ccc(C(=O)NC(=S)Nc2ccc(-c3nc4ccccc4s3)cc2C)cc1Cl	4%
O=C(COc1ccc([N+](=O)[O-])cc1)Nc1ccccc1Br	i
CCS(=O)(=O)N(CC(=O)N1CCOCC1)c1ccc(OC)cc1	i
O=C(O)COc1ccc(Br)cc1CO	i
CC(=O)NCCOc1nc(N2CCOCC2)nc(N2CCOCC2)n1	i
CCOC(=O)c1c(NC(=O)c2nn(CC)cc2Br)sc2c1CCCCC2	5%

Other records.
SMILES	Mtb growth
O=C(Nc1ccccc1C(=O)NCc1ccccc1)c1ccc(CN2CCOCC2)cc1	i
COc1ccc(NC(=O)C2CCC(=O)N2S(=O)(=O)c2ccc(C)cc2)c([N+](=O)[O-])c1 (stereo not given)	i
Clc1ccc(OCCN2CCCCC2)c(Br)c1	i
CC(=O)Nc1ccc(Nc2nc(-c3ccc(O)cc3)cs2)cc1	i
Cc1ccc(-c2nn(C)c(=O)c3ccccc23)cc1S(=O)(=O)N1CCOCC1	4%
CC(Nc1nc(N2CCOCC2)nc2ccccc12)c1ccccc1 (stereo not given)	11%
O=C(Nc1ccc(Cl)cc1)Nc1ccc(C(F)(F)F)cc1Cl	i
COc1ccc([N+](=O)[O-])cc1NS(C)(=O)=O	i
CCC(=O)c1ccc(OCC(O)CN2CCN(S(=O)(=O)N3CCOCC3)CC2)cc1 (stereo not given)	4%
CCc1ccc(/C=C(\C#N)S(=O)(=O)c2ccccc2)s1	i
CCOC(=O)C1CCN(S(=O)(=O)c2ccc(OCC(=O)OC)c(C)c2)CC1	i
CC(C)C1=CC23CCC4C(C)(C(=O)O)CCCC4(C)C2CC1C1C(=O)N(c2ccc(C(=O)O)cc2)C(=O)C13 (stereo not given)	i
Cc1ccccc1CN1C(=O)C(O)(CC(=O)c2ccc(-c3ccccc3)cc2)c2ccccc21 (stereo not given)	i
CC(=O)c1cccc(NC(=O)c2cccc(Cl)c2)c1	i
O=C(COc1ccc(S(=O)(=O)Nc2ccc(Cl)cc2)cc1)NCC1CCCO1 (stereo not given)	i
CCOc1ccc(N2C(=O)CC(Sc3nc(C)c4cc(OC)ccc4n3)C2=O)cc1 (stereo not given)	i
CS(=O)(=O)N(CC(=O)Nc1ccc(Br)c(Cl)c1)c1ccc(F)cc1	3%
Cc1ccc(C)c(-c2csc(Nc3ncccn3)n2)c1	i
COc1ccc(C(=O)NCc2nnc(SCc3cccc(C)c3)n2C)cc1	i
CCc1cc(I)ccc1NC(=O)c1ccccc1F	i

Three entries from above, field by field.
CC(=O)c1cccc(NC(=O)c2cccc(Cl)c2)c1
  Mtb growth: i
O=C(COc1ccc(S(=O)(=O)Nc2ccc(Cl)cc2)cc1)NCC1CCCO1 (stereo not given)
  Mtb growth: i
CCOc1ccc(N2C(=O)CC(Sc3nc(C)c4cc(OC)ccc4n3)C2=O)cc1 (stereo not given)
  Mtb growth: i

Further entries follow:
SMILES	Mtb growth
COc1ccc(Br)cc1C(=O)Nc1ccc(C(=O)O)cc1	i
COc1ccc(-c2csc(Nc3ncccc3C)n2)cc1	25µg/mL*
COc1ccc(NC(=O)CCc2ccc(S(=O)(=O)NC3CCCCC3)cc2)cc1	i
O=c1cc(-c2ccccc2)[nH]n1-c1ccc(F)cc1	i
Cc1ccc(S(=O)(=O)N(CC(=O)Nc2c(C)cc(C)cc2C)c2cc(Cl)ccc2C)cc1	i
Cc1ccc([N+](=O)[O-])cc1NC(=O)CN(c1cc(C(F)(F)F)ccc1Cl)S(C)(=O)=O	i
CCC(=O)c1ccc(OCc2ccc(Cl)c(Cl)c2)cc1	3%
COc1ccc(CCNC(=O)C(=O)NCc2cccs2)cc1OC	i
COc1ccc(CC(=O)Nc2ccc(NC(=O)c3ccco3)cc2)cc1OC	i
Cc1ccccc1CN(CC(=O)N1CCc2ccccc2C1)S(=O)(=O)c1ccc(Cl)cc1	2%
O=C(O/N=C(/c1ccncc1)c1ccc([N+](=O)[O-])cc1)c1ccccc1I	i
CCN(CC)CCOc1c(C)cccc1C	i
CC(=O)c1ccc(NC(=S)N2CCCCC2c2cccnc2)cc1 (stereo not given)	i
Cc1sc2ncnc(Oc3ccc4c(c3)OCO4)c2c1C	i
O=C(Nc1ccc(Cl)cc1C(F)(F)F)c1cnccn1	i
COCCCNc1ncnc2c1cnn2-c1cccc(C)c1	5%
COc1cccc(C(=O)Nc2ccccc2C(=O)Nc2cccc(Cl)c2)c1	i
COc1ccc(-c2cc(=O)c3cc(OC(=O)c4ccc(F)cc4)ccc3o2)cc1	i
CCn1c(SCc2ccc(Br)cc2)nnc1C(NC(=O)c1ccccc1)C(C)C (stereo not given)	3%
O=C(Nc1cccc(Cl)c1Cl)Nc1nn(Cc2ccc(Cl)c(Cl)c2)cc1Cl	i
Fc1ccc(CSc2nnc(SCc3ccc(Cl)cc3)s2)cc1	12%
C=CCOc1ccc2c(C)c(Cc3ccccc3)c(=O)oc2c1	2%
Cc1nnc(NC(=O)c2ccco2)s1	5%
COCCCNCCCOc1cc(C)cc(C(C)C)c1	i
COc1cc(OC)c(NC(=O)COc2ccc(C(C)(C)C)cc2Br)cc1Cl	4%
CCOC(=O)COc1ccc2c3c(c(=O)oc2c1)CCCCC3	2.7µg/mL*
O=C(O)C1Nc2c(cccc2C(F)(F)F)C2C=CCC12 (stereo not given)	1%
CC(C(=O)NC1CCCC1)N(c1ccc(Cl)cc1)S(C)(=O)=O (stereo not given)	i
O=C(COc1ccc2ccccc2c1Br)NC(=S)Nc1ccc(Cl)cc1Cl	i
O=C(CCc1ccccc1)NC(=S)Nc1cccc(S(=O)(=O)N2CCCC2)c1	i

The final five entries of the part before are carried over, then new ones follow.
SMILES	Mtb growth
CCOC(=O)COc1ccc2c3c(c(=O)oc2c1)CCCCC3	2.7µg/mL*
O=C(O)C1Nc2c(cccc2C(F)(F)F)C2C=CCC12 (stereo not given)	1%
CC(C(=O)NC1CCCC1)N(c1ccc(Cl)cc1)S(C)(=O)=O (stereo not given)	i
O=C(COc1ccc2ccccc2c1Br)NC(=S)Nc1ccc(Cl)cc1Cl	i
O=C(CCc1ccccc1)NC(=S)Nc1cccc(S(=O)(=O)N2CCCC2)c1	i
COC(=O)c1ccccc1NC(=O)CN1CCN(c2ccc(F)cc2)CC1	i
CCC(C)NCCOc1ccc(Br)cc1C (stereo not given)	i
O=C(Nc1ccc(C(=O)N2CCCCC2)c(Cl)c1)c1ccc([N+](=O)[O-])cc1	i
O=C(Nc1ccccc1[N+](=O)[O-])C1(c2ccccc2)CCCC1	i
CCOC(=O)c1c(NC(=S)NCCc2ccc(OC)c(OC)c2)sc2c1CCCC2	i
O=C(CNC(=O)c1ccccc1)NCC(=O)OCc1ccccc1Cl	i
O=C(CSc1nnc(-c2ccc([N+](=O)[O-])cc2)n1Cc1ccccc1)c1ccccc1	i
Cc1c(N2C(=O)C(C)SC23C(=O)Nc2ccccc23)c(=O)n(-c2ccccc2)n1C (stereo not given)	i
Cc1ccc(OCc2nnc(SCC(=O)Nc3nccs3)n2Cc2ccccc2)cc1C	0%
Cc1ccc2nc(-c3ccccn3)cc(C(=O)N3CCOCC3)c2c1	i

For convenience, part of the list above:
SMILES	Mtb growth
Cc1c(N2C(=O)C(C)SC23C(=O)Nc2ccccc23)c(=O)n(-c2ccccc2)n1C (stereo not given)	i
Cc1ccc(OCc2nnc(SCC(=O)Nc3nccs3)n2Cc2ccccc2)cc1C	0%
Cc1ccc2nc(-c3ccccn3)cc(C(=O)N3CCOCC3)c2c1	i

Pulled by structure from the list above:
SMILES	Mtb growth
CN1CCN(c2ncnc3c2cnn3Cc2ccc(Cl)cc2)CC1	i
CCN(CC)CCOc1c(C)cccc1C	i
Cc1cccc(C)c1NC(=O)COc1cc2oc(=O)c3c(c2cc1Cl)CCCC3	i

The listing continues:
SMILES	Mtb growth
COC(=O)c1ccccc1N(C)S(=O)(=O)c1ccc(C)cc1	i
CC(C)CCN1C(=O)c2ccc(C(=O)Nc3c[nH]c(=O)[nH]c3=O)cc2C1=O	i
O=C(c1cc(Br)ccc1Cl)N1CCc2ccccc21	5%
O=C(O)c1cccc(NC(=O)c2cc3ccccc3o2)c1	i
O=C1CC(NNc2ccccc2)C(=O)N1c1ccc2c(c1)OCO2 (stereo not given)	i
CCCOc1ccc(N2C(=O)CC(N3CCC(C(=O)O)CC3)C2=O)cc1 (stereo not given)	i
CCc1cc2c(=O)n(C(C)C(=O)OC3CCCCC3)cnc2s1 (stereo not given)	?
COc1ccc(CCNC(=O)c2ccc(Cn3cc(Cl)cn3)cc2)cc1	i
CN(C)c1ccc(C(=S)N2CCN(c3ccc(F)cc3)CC2)cc1	i
CC1(C)CC(OC(=O)c2ccncc2)CC(C)(C)N1O	i
CCNS(=O)(=O)c1ccc(NC(=O)c2cc(Cl)ccc2OC)cc1	i
CN(C)c1cccc(C(=O)Nc2cccc(F)c2)c1	i
O=C(CSc1nc2ccccc2[nH]1)NCCCn1ccnc1	i
O=C1CC(N2CCN(c3ccc(Cl)c(Cl)c3)CC2)C(=O)N1c1cccc(Cl)c1 (stereo not given)	i
COc1cccc(-c2nc(-c3ccc(NC(=O)c4ccncc4)cc3)no2)c1	1%
Cc1ccc(C(=O)c2coc3ccc(O)c(Cl)c23)cc1	9%
O=C(CN(c1cccc(Cl)c1Cl)S(=O)(=O)c1ccccc1)Nc1cccc2ccccc12	i
COc1cc(OC)cc(C(=O)NCc2cccnc2)c1	i
CC(Sc1ccc(Cl)cc1)C(=O)Nc1ccccc1C(=O)N1CCCC1 (stereo not given)	i
O=C(c1cn(-c2ccccc2)nc1-c1cc2ccccc2oc1=O)N1CCCCC1	5%
CCCOc1ccc(N2CC(C(=O)Nc3ccc(C(=O)OCC)cc3)CC2=O)cc1 (stereo not given)	i
O=C(NCC1CCCO1)C1CCN(S(=O)(=O)c2cc(Cl)ccc2Cl)CC1 (stereo not given)	i
O=C(CCC(=O)NC1CCCCCC1)NC1CCCCCC1	i
O=C(Nc1nccs1)c1ccc(S(=O)(=O)N2CCCCC2)cc1	i
